Assay outcomes deposited in PubChem BioAssay by National Center for Advancing Translational Sciences (NCATS).
Marburg entry inh – inhibitors of Marburg virus binding or cell entry; Marburg virus pseudotyped entry inhibition, cell reporter; control for the full effect not named in the record; about a third of the inactives were read at about 46 µM; Potency, µM (highest dose often 37.8 µM), without a hit: top-dose activity change, negative = inhibition, hits mostly inhibitors; 300,000 compounds, 1.8% hits; AID 540276; active = well fitted inhibition curve with a large enough effect; inconclusive = small, poorly fitted or top-dose-only effect, or effect the other way; inactive = flat fitted curve, though single readings scatter; tested in HEK293 cells; about a fifth of its hits are not listed in these tables; also: luciferase read-out
RE007 growth inh – less growth of the S. pombe RE007 Vpr strain; Potency, µM (highest dose often 92.2 µM), without a hit: top-dose activity change, negative = less growth; AID 651644; 360,000 compounds, 0.21% hits; S. pombe RE007 Vpr strain, BacTiter-Glo ATP luminescence, 24 h; control for the full effect not named in the record; active = well fitted falling curve with a large enough effect; inconclusive = small, poorly fitted or top-dose-only effect; inactive = no such curve, though single readings can be large or run the other way;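 also: nearly all actives have a fitted effect of over 50% in size; the assay follows cell death caused by Vpr and the record does not say whether a fall means rescue or toxicity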
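Fission yeast RE007 carrying one integrated HIV-1 vpr copy, seeded at OD 0.01 in PMG+AL medium with 23 nL pinned compound. Grown 24 h at 30 degrees; viability read by BacTiter-Glo luminescence after 5 min.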
2A StopGo – FMDV 2A StopGo reporter, luciferase signal. human cells with a luciferase reporter of 2A StopGo recoding; control for the full effect not named in the record. AID 1159524. Potency, µM (highest dose often 57.9 µM), inactives show at the top dose signal change, negative = less light. 410,000 compounds, 1.2% hits; active = well fitted falling curve with a large enough effect; inconclusive = small, poorly fitted or top-dose-only effect; inactive = no such curve, though single readings can be large or run the other way; tested in HEK293T cells; also: nearly all actives have a fitted effect of over 45% in size; luciferase light after 4 h
LASV entry inh – Lassa virus entry inhibition; Lassa virus pseudotype entry inhibition, cell reporter; control for the full effect not named in the record; Potency, µM (highest dose often 37.9 µM), without a hit: at the top dose activity change, negative = inhibition, actives largely listed as inhibitors; 300,000 compounds, 1.2% hits; active means well fitted inhibition curve with a large enough effect; inconclusive means small, poorly fitted or top-dose-only effect, or effect the other way; inactive means flat fitted curve, though single readings scatter; tested in HEK293 cells; also: nearly all actives have a fitted effect of over 50% in size; luciferase read-out
* = called active by the depositor; ? = inconclusive; . = not tested or not shown; & = joins results of further samples; [ ] = dose if it differs, or a comment. % is scaled to controls: 0 for no effect and ±100 for the full control effect; potency is read from the fitted curve at half-maximal effect. Some of the compounds tested (hit frequency here may not be typical).

SMILES | Marburg entry inh | RE007 growth inh | 2A StopGo | LASV entry inh
CCCN(CCC)Cc1cc(=O)oc2cc(C)ccc12 | . | -14.6% | -2.2% | 3.7%[46.1 µM]
Cn1ccc2c(N3CCCCCC3)cc3c(c21)C1CCC3O1 (stereo not drawn) | . | -29.2% | -15.9% | ?
Cn1ccc2c(-c3ccc(C(F)(F)F)cc3)cc3c(c21)C1CCC3C1 (stereo not drawn) | . | 2.5% | -15.9% | -8.6%[46.1 µM]
COc1ccc(CNCCS(=O)(=O)NCc2ccccc2)cc1 | . | 0.3% | -15.7% | ?
CC(C)CC1C(=O)N(Cc2cn(CC3CCCCC3)nn2)CCS(=O)(=O)N1Cc1ccc(-c2ccncc2)cc1 (stereo not drawn) | . | 3.0% | -7.8% | 14.1µM*
Cn1ccc2c(-c3ccc(CO)cc3)cc3c(c21)C1CCC3O1 (stereo not drawn) | . | -12.8% | -7.2% | -1.5%[46.1 µM]
COCCN(CCOC)Cc1cc(=O)oc2ccc3ccccc3c12 | . | -22.9% | -8.9% | ?
COCOCCn1cc(CN2CCS(=O)(=O)N(Cc3ccc(-c4ccc(Cl)nc4)cc3)C(CC(C)C)C2=O)nn1 (stereo not drawn) | . | -23.1% | -9.6% | ?
Cc1cccc(CN2[C@H](COCc3ccccc3)C=CS2(=O)=O)c1 | . | -6.0% | -12.3% | -7.3%[46.1 µM]
Cc1cccc(CN2CCN(C3CN(CCc4ccccc4)S(=O)(=O)C3)CC2)c1 (stereo not drawn) | . | -10.1% | -9.9% | ?
CCCC(=O)c1ccc(OCc2cn(CC(=O)c3ccc(O)cc3)nn2)cc1 | . | -15.2% | 16.2% | ?
CC(C)C[C@@H](CO)NS(=O)(=O)c1cc(Cl)ccc1F | . | -5.9% | -5.9% | ?
CN(Cc1ccccc1F)c1cc2c(c3c1ccn3C)C1CCC2O1 (stereo not drawn) | . | -10.6% | -20.8% | ?
CC1C(=O)N(Cc2cn(Cc3ccco3)nn2)CCS(=O)(=O)N1Cc1ccc(-c2ccccc2Cl)cc1 (stereo not drawn) | . | 9.7% | 0.0% | -5.4%[46.1 µM]
CC1C(=O)N(Cc2cn(CC3CCCCC3)nn2)CCS(=O)(=O)N1Cc1ccc(-c2ccncc2)cc1 (stereo not drawn) | . | -0.4% | ? | ?
O=S1(=O)C[C@@H](N2CCCC2)[C@H](COCc2ccccc2)N1 | . | 1.8% | -20.2% | -4.3%[46.1 µM]
CN(C)CCN1CCN(C2CN(C3CCCCC3)S(=O)(=O)C2)CC1 (stereo not drawn) | . | 1.3% | -19.5% | 3.6%[46.1 µM]
COc1ccccc1N(C)c1cc2c(c3c1ccn3C)C1CCC2O1 (stereo not drawn) | . | -23.3% | -22.6% | ?
COc1ccc2cc([C@H](C)C(=O)OCc3cn(CC(=O)c4ccc(O)cc4)nn3)ccc2c1 | . | 3.8% | -15.8% | ?
Cn1ccc2c(N3c4ccccc4CCc4ccccc43)cc3c(c21)C1CCC3C1 (stereo not drawn) | . | -8.1% | -25.8% | -1.1%[46.1 µM]
COc1ccc([C@H]2C[C@H](O)[C@@H](n3cc(COC(=O)c4ccccc4)nn3)CN2Cc2cccs2)cc1 | . | -22.0% | -5.0% | ?
COc1ccc([C@H]2C[C@@H](n3cc(C4CC4)nn3)[C@H](O)CN2Cc2cccs2)cc1 | . | -0.3% | 7.8% | ?
COc1cc(C(C)=O)ccc1OCc1cn(CC(=O)c2ccc(O)cc2)nn1 | . | -2.6% | -1.8% | ?
O=[N+]([O-])c1ccc(CN2[C@H](COCc3ccccc3)[C@@H](N3CCCC3)CS2(=O)=O)cc1 | . | 2.3% | -22.9% | -3.3%[46.1 µM]
Cc1ccc([C@H]2C[C@H](n3cc(COC(=O)c4ccccc4)nn3)[C@@H](O)CN2Cc2cccs2)cc1 | . | -20.7% | -5.8% | 2.5%[46.1 µM]
COc1ccc(N2CC(C)(C)[C@H](CC(=O)Nc3ccc(Br)cc3)C2=O)cc1 | . | -1.3% | -24.9% | ?
COc1ccc(NC(=O)C[C@H]2C(=O)N(C3CCCCC3)C[C@@H]2C)cc1 | . | 0.0% | -16.6% | ?
COCOCCn1cc(CN2CCS(=O)(=O)N(Cc3ccc(-c4ccc(Cl)c(Cl)c4)cc3)C(C(C)C)C2=O)nn1 (stereo not drawn) | . | 12.6% | ? | ?
O=C(NCCc1ccccc1)c1cccc(NC(=O)C2CCC2)c1 | . | -2.0% | 66.2%[activator] | ?
O=C(Nc1ccc(C(=O)N2CCOCC2)cc1)C1CCC1 | . | -7.9% | -15.0% | -9.3%[46.1 µM]
O=C(NCc1ccccc1)c1cccc(NC(=O)C2CCC2)c1 | . | 8.5% | 22.3% | ?
COC(=O)C1CCN(C2CN(Cc3ccc(C)cc3)S(=O)(=O)C2)CC1 (stereo not drawn) | . | 1.4% | -5.3% | ?
O=C(NC1CC1)c1ccc(NC(=O)C2CCC2)cc1 | . | 3.9% | 9.1% | ?
COc1ccc(-c2ccc(CN3C(CC(C)C)C(=O)N(Cc4cn(CC5CCCCC5)nn4)CCS3(=O)=O)cc2)cc1 (stereo not drawn) | . | -10.4% | ? | ?
O=C(NC1CC1)c1cccc(NC(=O)C2CCCC2)c1 | . | 7.3% | -11.8% | 3.8%[46.1 µM]
Cc1ccc([C@H]2C[C@@H](O)[C@H](n3cc(-c4ccc(F)cc4)nn3)CN2Cc2cccs2)cc1 | . | -9.4% | -29.3% | ?
CCCCCCN1CCN(C2CN(C3CCCCC3)S(=O)(=O)C2)CC1 (stereo not drawn) | . | -19.4% | -7.4% | -3.8%[46.1 µM]
COc1ccc([C@H]2C[C@H](n3cc(COC(=O)c4ccccc4)nn3)[C@@H](O)CN2CC2CCCCC2)cc1 | . | -1.3% | -10.2% | ?
CC(C)C1C(=O)N(Cc2cn(Cc3ccco3)nn2)CCS(=O)(=O)N1Cc1ccc(-c2ccccc2)cc1 (stereo not drawn) | . | -1.4% | ? | ?
Cc1ccc(CN2CC(N3CCN(C)CC3)CS2(=O)=O)cc1 (stereo not drawn) | . | -6.6% | -9.6% | 3.8%[46.1 µM]

Full records as entered above.
Profile of COc1ccc([C@H]2C[C@@H](n3cc(C4CC4)nn3)[C@H](O)CN2Cc2cccs2)cc1 → Marburg entry inh = .; RE007 growth inh = -0.3%; 2A StopGo = 7.8%; LASV entry inh = ?
Profile of COc1ccc(-c2ccc(CN3C(CC(C)C)C(=O)N(Cc4cn(CC5CCCCC5)nn4)CCS3(=O)=O)cc2)cc1 (stereo not drawn) → Marburg entry inh = .; RE007 growth inh = -10.4%; 2A StopGo = ?; LASV entry inh = ?
Profile of O=C(NC1CC1)c1ccc(NC(=O)C2CCC2)cc1 → Marburg entry inh = .; RE007 growth inh = 3.9%; 2A StopGo = 9.1%; LASV entry inh = ?

(continued)
SMILES | Marburg entry inh | RE007 growth inh | 2A StopGo | LASV entry inh
Cc1cccc(C(=O)N2[C@@H](C(C)C)COc3cc(Br)ccc3S2(=O)=O)c1 | . | -17.4% | -17.7% | ?
O=S(=O)(CCNCc1ccco1)NCc1ccccc1 | . | 5.4% | -16.6% | ?
COCOCCn1cc(CN2CCS(=O)(=O)N(Cc3ccc(-c4ccc(OC)nc4)cc3)C(C(C)C)C2=O)nn1 (stereo not drawn) | . | -16.4% | -17.3% | ?
O=S1(=O)c2ccc(Br)cc2N2CCC[C@@H]2CN1Cc1ccc(Cl)cc1 | . | -3.5% | ? | ?
COCOCCn1cc(CN2CCS(=O)(=O)N(Cc3ccc(-c4ccc(OC)c(OC)c4)cc3)C(C)C2=O)nn1 (stereo not drawn) | . | -6.1% | -25.8% | ?
Cn1ccc2c(-c3ccc(C(=O)O)cc3)cc3c(c21)C1CCC3O1 (stereo not drawn) | . | 1.5% | 16.0% | ?
O=C(c1ccco1)N1CCN(C2CN(Cc3cn(Cc4ccccc4C(F)(F)F)nn3)S(=O)(=O)C2)CC1 (stereo not drawn) | . | 4.1% | -9.5% | ?
O=C(Nc1cccc(C(=O)N2CCCCC2)c1)C1CCCCC1 | . | -6.2% | 1.4% | 8.3%[46.1 µM]
Cc1ccc([C@H]2C[C@@H](O)[C@H](n3cc(COC(=O)c4ccccc4)nn3)CN2CC2CCCCC2)cc1 | . | 6.9% | -4.3% | 1.3%[46.1 µM]
O=S(=O)(NC1CC1)c1ccc(Br)cc1N1CCC[C@H]1CO | . | -11.4% | -8.5% | ?
COc1ccc([C@H]2C[C@H](n3cc(COC(=O)c4ccccc4)nn3)[C@@H](O)CN2Cc2cccs2)cc1 | ? | 5.9% | -15.9% | .
C#CCOCCOCCOCCNc1nc(N2CCN(C(=O)Cn3cc(CCCCN)nn3)CC2)nc(N2CCN(C(=O)[C@H](C)n3cc(CCC(=O)O)nn3)CC2)n1 | -1.0% | 4.1% | 0.0% | .
O=C(C[C@H]1C(=O)N(CCc2ccccc2)C[C@@H]1Cc1ccccc1)Nc1ccc(Br)cc1 | ? | -16.1% | -11.0% | .
CCCCCCN1CCN(C2CN(Cc3ccc([N+](=O)[O-])cc3)S(=O)(=O)C2)CC1 (stereo not drawn) | ? | -28.0% | -12.7% | .
O=C(Nc1cccc(C(=O)N2CCCCC2)c1)C1CC1 | ? | 5.9% | -12.9% | .
COc1cccc(NC(=O)CN(C)C(=O)c2cccc(NS(=O)(=O)c3ccc(Br)cc3)c2)c1 | 2.2% | 10.9% | 4.9% | .
CCCCN1CC(N2CCN(C(=O)c3ccco3)CC2)CS1(=O)=O (stereo not drawn) | ? | 1.0% | -4.8% | .
COC(=O)C1=C(C(=O)OC)[C@@H]2N(C)c3ccc(OC)cc3[C@@]23C[C@@H](C(=O)OC)N(C(=O)NCCBr)C3=N1 | ? | -6.1% | 18.0% | .
CCN1C(=O)N[C@@H](c2cccc(F)c2)C(C(=O)OC)=C1C | 19.3%&19.3%[14.2 µM] | -9.4% | -3.6% | .
O=S1(=O)CC(N2CCCC2)CN1CCc1ccccc1 (stereo not drawn) | ? | 13.3% | -4.4% | .
COc1ccc([C@H]2C[C@@H](O)[C@H](n3cc(-c4ccc(F)cc4)nn3)CN2C(=O)C2CCCCC2)cc1 | ? | 7.0% | -16.4% | .
CC(=O)C1=C(C)N(Cc2ccccc2)C(=O)N[C@H]1c1cccc(F)c1 | -4.6%&-4.6%[14.2 µM] | 4.7% | -23.3% | .
Cc1cc(C)c(CN2CCN(CCCn3cnc(C(=O)Nc4ccc(C)c(C)c4)n3)CC2)c(C)c1 | -3.1% | 1.7% | ? | .
Cc1cc(C)c2c(CN3CCCCCCC3)cc(=O)oc2c1 | ? | -19.2% | 26.0% | .
CCN1C(=O)N[C@@H](c2cccc(C(F)(F)F)c2)C(C(=O)OC)=C1C | 22.7%&22.7%[14.2 µM] | -9.6% | 0.0% | .
CCOC(=O)CN1C(=O)N[C@@H](c2cccc(F)c2)C(C(=O)OC)=C1C | -23.8%&-23.8%[14.2 µM] | -1.4% | ? | .
COc1ccccc1N(CC(=O)Nc1c(C)n(C)n(-c2ccccc2)c1=O)S(=O)(=O)c1ccccc1 | 1.4% | -17.3% | -9.3% | .
CCN1C(=O)N[C@@H](c2ccccc2)C(C(=O)OC)=C1C | 7.3%&7.3%[14.2 µM] | 12.6% | -8.8% | .
CCOC(=O)CN1C(=O)N[C@@H](c2cccc(C(F)(F)F)c2)C(C(=O)OC)=C1C | -11.4%&-11.4%[14.2 µM] | 0.1% | -5.0% | .
Cc1ccc2c(CN(Cc3ccccc3)Cc3ccccc3)cc(=O)oc2c1 | ? | 8.0% | -24.0% | .
C#CCOCCOCCOCCNc1nc(N2CCN(C(=O)[C@H]([C@@H](C)CC)n3cc(CCC(=O)O)nn3)CC2)nc(N2CCN(C(=O)[C@H](CCCCN)n3cc(CC(C)O)nn3)CC2)n1 (stereo partly drawn) | 0.0% | 3.0% | -13.6% | .
Cc1ccc([C@H]2C[C@@H](n3cc(C4CC4)nn3)[C@H](O)CN2C(=O)C2CCCCC2)cc1 | ? | 8.0% | -20.4% | .
COc1ccc(-c2ccc(CN3C(CC(C)C)C(=O)N(Cc4cn(CCC5OCCO5)nn4)CCS3(=O)=O)cc2)cc1OC (stereo not drawn) | ? | -6.5% | -14.6% | .
